# Source: PubChem BioAssay (Broad Institute)
# ALR H2O2 inh – human ALR oxidase inhibition via reduced H2O2. hit rate 3.8% among 290,000. purified ALR, DTT oxidation, H2O2 HRP-luminol luminescence. P55789. inhibition, % (concentration not given with the values);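 active = mean and each replicate at 75% or more; inconclusive = only one of the two met; inactive = neither met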;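 note: stock transfer was 7.5 nL into about 7.5 µL; 0% = neutral wells and 100% = wells with inactivated enzyme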
# Target sequence (P55789 whole entry, looked up): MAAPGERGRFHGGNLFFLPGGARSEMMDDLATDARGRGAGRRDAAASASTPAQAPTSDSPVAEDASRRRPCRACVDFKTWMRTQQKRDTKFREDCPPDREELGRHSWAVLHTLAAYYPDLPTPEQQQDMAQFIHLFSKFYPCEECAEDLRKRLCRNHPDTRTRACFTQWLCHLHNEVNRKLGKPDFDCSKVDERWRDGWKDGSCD
# Beta cell apopt – beta cell apoptosis inhibition; INS-1E cytokine-induced death, ATP luminescence, 48 h; percent of positive-control rescue, neutral wells zero; protection from apoptosis, % (test concentration not listed); hit rate 0.8% among 300,000;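 active = all replicates at 75% or more, or half of them and the mean; inconclusive = half reach 75% but not the mean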;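 note: 0% = cytokine-treated negative control wells and 100% = positive control rescue; higher means more ATP so stronger rescue from cytokine killing; wells of about 40 µL received 100 nL stock; the first replicate is given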
# AF4-AF9 inh – MLL-AF4/AF9 protein interaction inhibition | hit rate 0.47% among 350,000 | AlphaScreen, biotin-AF4 peptide binding to FLAG-AF9 | inhibition, % at 10 µM | P42568;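 active = every replicate reaching a set inhibition limit, whatever the replicate mean, cut at about 25% in these data; inconclusive = mean inhibition reaches that limit but some replicates miss it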;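 note: 0% = plate neutral control median and 100% = total signal loss; the record names both 10 and 1 µM as test concentration; the first replicate is given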
# Target sequence (P42568 whole entry, looked up): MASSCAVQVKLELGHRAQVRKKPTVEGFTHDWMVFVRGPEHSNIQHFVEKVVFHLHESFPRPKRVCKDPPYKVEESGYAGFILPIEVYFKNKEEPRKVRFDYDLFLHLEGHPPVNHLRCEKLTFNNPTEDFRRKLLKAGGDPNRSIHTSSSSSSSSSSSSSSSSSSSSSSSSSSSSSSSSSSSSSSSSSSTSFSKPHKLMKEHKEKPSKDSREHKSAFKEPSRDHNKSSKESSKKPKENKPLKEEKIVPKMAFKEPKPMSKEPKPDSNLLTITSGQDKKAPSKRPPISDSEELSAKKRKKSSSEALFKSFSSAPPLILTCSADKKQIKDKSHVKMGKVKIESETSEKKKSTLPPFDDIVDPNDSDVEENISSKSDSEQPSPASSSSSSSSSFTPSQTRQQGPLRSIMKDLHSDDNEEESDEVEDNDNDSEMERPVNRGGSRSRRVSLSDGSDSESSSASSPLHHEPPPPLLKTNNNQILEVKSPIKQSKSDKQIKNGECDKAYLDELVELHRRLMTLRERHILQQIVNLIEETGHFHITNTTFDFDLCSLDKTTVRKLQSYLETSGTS
# FGF22 binding – FGF22 (human) thermal shift binding; hit rate 1.5% among 340,000; Q9HCT0; AID 651658; recombinant FGF22 thermal shift, SYPRO orange fluorescence; percent of sucrose octasulfate shift, DMSO zero; calls only at 9.99 µM;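 active = melting point raised past a set limit in the mean and every replicate; inconclusive = no clear call; three in four hits are not shown here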
# Target sequence (Q9HCT0 whole entry, looked up): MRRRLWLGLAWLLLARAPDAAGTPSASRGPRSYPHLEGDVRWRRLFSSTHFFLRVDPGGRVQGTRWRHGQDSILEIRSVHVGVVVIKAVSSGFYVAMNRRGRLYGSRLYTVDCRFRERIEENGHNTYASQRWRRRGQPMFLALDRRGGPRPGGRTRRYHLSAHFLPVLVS
# rRNA inh HTS – inhibits bacterial ribosomal RNA function over humanized ribosomes | E. coli WT GFP vs humanized-ribosome RFP mutants, fluorescence, 24 h; hits give low values; DMSO median 0, no signal -100 | GFP signal change (wild-type ribosome), % (concentration not given with the values) | hit rate 1.6% among 350,000 | AID 720706;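 active = significant combined selectivity score with lowered wild-type GFP, culture density cut under 30%, mutant RFP and density less affected; inactive = any of these conditions unmet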; note: one replicate is shown; some compounds called inactive have numbers as strong as hits
# Calb FLC – C. albicans growth modulation with fluconazole; C. albicans CaCi-2 (fluconazole-resistant clinical isolate) + fluconazole, Alamar Blue growth, 48 h; growth inhibition, % (no concentration beside the values); hit rate 0.57% among 300,000;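 active = most replicates above 75%; inconclusive = exactly half above 75%; inactive = most below 75%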;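 note: all wells also contain fluconazole at 8 µg/ml as a sub-toxic cotreatment; 0% = median of DMSO wells and 100% = median of geldanamycin control wells; wells of about 8 µL received 7.5 nL stock; the first replicate is given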
# T cruzi repl – blocks replication of Trypanosoma cruzi | T. cruzi beta-gal in NIH3T3, luminescence, 90 h | inhibition, % (no concentration beside the values) | hit rate 1.4% among 300,000 | AID 1885;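 active = mean inhibition across valid replicates above about 55%, limit read from the data; inconclusive = mean below that limit but half or more replicates reach it; inactive = mean below it, under half of replicates reach it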;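 note: signal also drops with host cell toxicity which is not excluded here; 0% = plate median of DMSO wells and 100% = zero luminescence signal; higher percent means less beta-gal luminescence so fewer parasites; stock transfer was 50 nL into about 50 µL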
# RanGTP-Impb inh – disruptors of Ran-importin-beta complex formation – biochemical, FRET, CFP-Ran, YFP-importin-beta, homogeneous, primary screen; cell-free CFP-Ran/YFP-importin-beta FRET ratio; inhibition, % (concentration not given with the values); hit rate 1.1% among 300,000; AID 2216;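 active = most replicates above 15%; inconclusive = exactly half above 15%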;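 note: 0% = DMSO wells and 100% = Ran loaded with GDP instead of GTP; wells of about 40 µL received 100 nL stock; the first replicate is given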
# rRNA inh HTS OD600 – also measured in rRNA inh HTS; calls as there; OD600 change, %; measured here: OD600 growth;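 optical density of the mix in the first replicate; 0 = DMSO median and -100 = no signal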
# rRNA inh HTS RFP – also measured in rRNA inh HTS; calls as there; RFP signal change, %; measured here: RFP humanized mutant strains;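 first replicate; 0 = DMSO median and -100 = no signal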
# * hit, by the source's call; i = inactive; ? = inconclusive; nt = not tested or not shown.
SMILES,ALR H2O2 inh,Beta cell apopt,AF4-AF9 inh,FGF22 binding,rRNA inh HTS,rRNA inh HTS OD600,rRNA inh HTS RFP,Calb FLC,T cruzi repl,RanGTP-Impb inh
Cc1c(N=C2SCC(=O)N2/N=C/c2ccccc2)c(=O)n(-c2ccccc2)n1C,-3,-6,-3.8,i,6,5,-1.9,26,-13,0.1
OC(CN1C2=NCCN2c2ccccc21)c1ccc(Br)cc1 (centres undefined),-3,-1,nt,nt,nt,nt,nt,-2,8,0.0
O=C(Nc1c2c(nn1-c1ccc(F)cc1)CS(=O)(=O)C2)c1ccc2c(c1)OCO2,-19,-2,-11,i,3,1,-0.1,-3,-2,-1.0
O=C(c1cccs1)N1CCCC(c2nc(-c3ccc(F)cc3)no2)C1 (centres undefined),-11,-1,nt,nt,nt,nt,nt,-22,15,0.0
CCOC(=O)C1CCCCN1C(=O)CCc1c(C)nc2ncnn2c1C (centres undefined),4,1,nt,nt,nt,nt,nt,-16,-3,-2.1
CCC(=O)Nc1nc(NCc2ccccc2OC)n(-c2ccccc2)n1,-4,-3,-4.2,i,-1,1,0.1,-5,3,3.4
COc1cccc(/C=N/NC(=S)NC2CC3CC2C2C=CCC32)c1O (centres undefined),-16,2,nt,i,15,2,2.0,13,-19,3.6
O=C(CN1CCCC1)Nc1ccc(Cl)cc1C(F)(F)F,-2,-4,-5.8,i,17,18,-7.4,-5,-19,-2.7
CC(=O)N1c2ccccc2Sc2ccccc21,-3,-9,-0.6,i,-11,-5,0.7,-1,8,1.1
CS(=O)(=O)N1CCCC(C(=O)NCc2ccccc2Cl)C1 (centres undefined),-6,2,nt,nt,10,8,0.7,-1,-18,1.5
CCOC(=O)c1nnsc1NC(=O)Nc1ccc(OC)cc1,-4,3,-3.0,i,23,17,-3.5,-27,2,12
C=CCN1C(=O)C2C(C(=O)NCc3ccccc3)C3C=CC2(O3)C1C(=O)NC(C)(C)C (centres undefined),-5,nt,nt,nt,nt,nt,nt,3,-3,1.1
C=CC[C@@H](CC(=O)NCCO)C(=O)NC[C@H](OC(=O)[C@@H](CC=C)Cc1ccc(F)cc1)c1ccccc1,-1,-1,-2.1,i,2,5,2.4,nt,nt,nt
CCn1cc(S(=O)(=O)CC(=O)Nc2ccc(OC)cc2)c2ccccc21,-8,-13,7.5,i,6,2,1.4,-9,-6,-0.3
Cc1nn2c(-c3ccc(Cl)cc3Cl)nnc2s1,nt,0,nt,nt,nt,nt,nt,-2,-9,?
Cc1ccc(CS(=O)Cc2ccc(C(=O)NCc3cccs3)o2)cc1 (centres undefined),-2,1,-0.8,i,3,-12,12,-12,8,-4.5
CN1CCN(S(=O)(=O)c2ccc(C#N)cc2)C(c2ccccc2)C1 (centres undefined),-6,-8,-5.7,i,-26,-33,-7.6,nt,nt,nt
COc1ccc(/C=C2\CN(Cc3ccccc3)C/C(=C\c3ccc(OC)cc3OC)C2=O)c(OC)c1,-36,9,nt,nt,nt,nt,nt,-3,81*,2.5
O=C(Cn1cc(/C=N/NC(=O)c2cccc3ccccc23)c2ccccc21)Nc1ccc(F)cc1,-7,0,5.3,i,5,0,-5.4,16,-5,0.0
COc1cccc(CC2(CO)CCN(Cc3ccc(NC(C)=O)cc3)CC2)c1,-18,-5,1.5,i,21,8,3.6,-6,-38,-0.3
CC(C)c1nnc(SCC(=O)N2CCc3ccccc32)n1C,-1,-4,nt,nt,nt,nt,nt,0,-11,-0.9
Cc1ccccc1OCCC(=O)Nc1c(C)n(C)n(-c2ccccc2)c1=O,-6,-3,nt,nt,nt,nt,nt,-5,-9,0.5
O=C(c1nnsc1S(=O)c1ccc(Cl)cc1)N1CCOCC1 (centres undefined),nt,nt,-4.2,i,2,1,-1.9,-17,63*,5.9
CCn1c(SCC(=O)N2CCc3ccccc32)nnc1-c1ccncc1,-1,-6,nt,nt,nt,nt,nt,4,-9,-6.0
CSc1nc(-c2ccccc2)nc(C(C)C)n1,0,-10,3.8,i,5,14,8.5,nt,nt,nt
Cc1cc(Oc2ccc(=O)n(C)n2)nc(Oc2ccc(=O)n(C)n2)n1,2,-3,nt,nt,nt,nt,nt,-5,7,0.3
Cc1cc(C)nc(SCC(=O)NN=Cc2ccc(C)o2)n1,-7,-7,-1.8,i,1,7,-0.2,nt,nt,nt
CN(C)c1nn(C(=O)Nc2ccc(Cl)cc2Cl)cc1-c1ccccc1,-2,0,nt,nt,nt,nt,nt,-13,-20,4.7
Cc1nc(SCc2ccccc2)[nH]c(=O)c1CC(=O)OCC(C)C,16,-2,0.6,i,6,4,-2.2,2,-6,-2.1
Cc1ccc(NC(=O)CNc2cccc(S(=O)(=O)N3CCOCC3)c2)cc1F,nt,nt,1.1,nt,4,2,0.1,-1,2,3.3
CC(C)(C)NC(=O)CN(C(=O)CNC(=O)c1cccs1)c1ccc2c(c1)OCCO2,-4,-4,-31,i,0,-8,-6.8,-7,2,-0.9
COc1ccc(Cl)cc1NC(=O)CN1CCc2ccccc21,-9,-1,1.8,i,0,5,0.5,11,6,-1.8
COc1cc(NC(=O)CSc2nc3cc(C)ccc3cc2C)c(C(=O)O)cc1OC,nt,-5,nt,nt,nt,nt,nt,-6,-9,-0.9
O=C(CCNC(=O)c1ccc([N+](=O)[O-])cc1)NCCc1ccc(Cl)cc1,-1,-3,0.8,i,16,8,3.1,-13,3,0.4
CC(Cc1ccccc1)C(=O)N(C)Cc1cccnc1 (centres undefined),4,-2,-4.5,i,21,19,-10,-10,-12,2.3
c1cncc(-c2nc(N3CCOCC3)c3ccccc3n2)c1,-3,nt,nt,nt,nt,nt,nt,-9,14,-3.7
O=c1[nH]c2cc3c(cc2cc1CN(CCO)S(=O)(=O)c1ccccc1)OCCO3,-10,0,2.3,i,-6,-2,0.7,3,-7,1.2
CSc1nc(N)nc(SCCS(=O)(=O)c2ccc(Cl)cc2)c1C#N,-4,10,nt,nt,nt,nt,nt,7,-10,-1.5
Cc1ccc(NC(=O)CCNC(=O)Cn2ccc3ccccc3c2=O)cc1F,nt,-10,-1.5,i,9,15,-2.0,6,-6,-3.0
Cc1sc2ncnc(N3CCN(S(=O)(=O)c4ccc(Br)cc4)CC3)c2c1C,nt,2,-2.0,i,-5,-8,-1.3,-25,-1,1.7
COc1cccc(CC(=O)Nc2cc(S(=O)(=O)N3CCOCC3)ccc2N2CCOCC2)c1,-3,3,1.2,i,4,2,2.2,4,15,0.9
O=C(Nc1ccccc1C(=O)Nc1ccc(Cl)cc1)c1cccnc1,0,-4,3.4,i,1,4,4.4,16,-5,-1.2
CC(=O)NC(NC(=S)Nc1ccc(C)cc1C)C(Cl)(Cl)Cl (centres undefined),-4,-2,-4.4,i,-15,-9,-11,1,-14,?
CN1CCN(C(=O)C2CCN(c3ncnc4c3nc3n4CCCCC3)CC2)CC1,-7,-2,-9.2,i,15,8,2.1,-2,-15,4.8
CCCCN1C(=O)C(=O)N(CC(=O)N2N=C3/C(=C/c4ccco4)CCCC3C2c2ccco2)C1=O (centres undefined),-1,-1,3.4,i,1,12,-3.1,-16,-11,3.8
CCCCOc1ccc(/C=N/NC(=O)c2nnn(-c3nonc3N)c2C)cc1,nt,-3,-1.8,i,8,4,-0.6,1,3,1.7
CCOc1ccccc1C(=O)Nc1nnc(Cc2ccc(OC)c(OC)c2)s1,0,nt,0.3,i,5,6,0.0,5,-8,2.3
Cc1cc(OCC(O)CN(C)C(=O)C(C)Oc2ccccc2)ccc1Cl (centres undefined),-5,-3,3.1,i,-26,-55,-3.3,8,4,-0.9
COc1ccc(CN2C(=O)c3cccnc3C2=O)cc1S(=O)(=O)NCc1ccc(C)o1,8,0,-1.1,i,11,18,3.7,2,-14,-0.2
N#Cc1cn(CC(=O)N2CCCc3ccccc32)c2ccccc12,-10,-1,nt,nt,nt,nt,nt,-4,4,0.2
N#Cc1ccccc1N/C=C/C(=O)c1ccc(Cl)cc1,0,0,-1.0,i,12,11,47,-26,26,4.1
CCNc1nc(OC)nc(Oc2ccc(C(=O)OC)cc2)n1,-4,7,nt,nt,nt,nt,nt,12,-4,7.7
COCCN(C(=O)c1cccc(OC)c1)c1nnc(-c2ccncc2)s1,-4,-7,nt,nt,nt,nt,nt,9,4,1.6
Cc1ccc(S(=O)(=O)N2CCN(Cc3ccccc3)CC2)c(C)c1N(C)S(=O)(=O)c1ccccc1,-22,6,-3.5,i,nt,nt,nt,1,27,0.3
CC(C)CCNC(=O)C12CN(Cc3ccccc3)CC1C(c1cccc([N+](=O)[O-])c1)=NO2 (centres undefined),-8,-8,0.8,i,3,-4,-2.1,2,30,-1.0
O=c1[nH]c2c(s1)C(c1ccco1)C1C3CCC(C3)C1S2 (centres undefined),nt,-12,nt,nt,nt,nt,nt,32,1,24*
O=C(NC(c1ccccc1)C(Cl)(Cl)Cl)c1ccccc1 (centres undefined),0,-10,-74,i,-13,-25,-3.7,-22,-4,5.7
CSc1nc(Cl)cc(=O)[nH]1,0,-8,-3.5,i,-6,7,-2.8,-5,-8,0.6
Cc1sc2ncn(CC(=O)N3CCOCC3)c(=O)c2c1-c1ccccc1,-19,-4,-2.1,i,14,0,1.2,8,-2,1.9
COC(=O)c1c[nH]n2c(=O)c(Cl)c(C)nc12,0,1,-16,i,13,1,10.0,6,-21,5.6
# Other records:
SMILES,ALR H2O2 inh,Beta cell apopt,AF4-AF9 inh,FGF22 binding,rRNA inh HTS,rRNA inh HTS OD600,rRNA inh HTS RFP,Calb FLC,T cruzi repl,RanGTP-Impb inh
COc1ccc(/C=C/C(=O)c2nc3ccccc3n2CC(=O)c2ccc(OC)cc2)cc1,-7,6,nt,nt,nt,nt,nt,-3,3,-0.3
CO/N=C/c1ccc(Oc2ccc(C)cc2)nc1,1,2,nt,nt,nt,nt,nt,-9,-7,1.2
Cc1nc2c(ncn2-c2ccccc2)c(=O)n1NC(=O)CN1CCOCC1,-1,nt,0.0,i,13,10,2.4,-5,-11,-2.2
CCOC(=O)c1ccc(NC(=O)Cn2ncc(Cl)c(Cl)c2=O)cc1,1,8,-0.5,i,-16,-22,-0.9,64,56*,-2.7
COc1ccc(C(CNC(=O)c2ccco2)N2CCCCC2)cc1 (centres undefined),-18,nt,-0.7,nt,15,20,12,-12,6,5.4
CC(C)C(=O)Nc1c(-c2ccc(Cl)cc2)c(=O)c2ccccc2n1C,-10,-6,-1.0,i,3,15,1.9,5,-2,-3.5
CCOC(=O)Cc1cc(=O)c2c(=O)n(-c3ccccc3)[nH]c2[nH]1,78*,3,nt,nt,nt,nt,nt,-17,0,-6.1
Cc1ccc(S(=O)(=O)N2CCCC2C(=O)NCc2ccncc2)cc1 (centres undefined),-3,-5,-3.1,i,12,13,4.1,0,-2,-0.5
CC(C)(C)c1cc(/C=N/O)cc(C(C)(C)C)c1O,9,-21,2.5,i,-52,-80,-27,7,-9,1.8
CCc1cc2c(=O)c(-c3nc(C)cs3)coc2cc1O,-6,0,-7.8,i,4,0,-1.2,0,-6,0.1

# A portion of the library; the hit share may differ from the screen's.
